Assay outcomes: PubChem, National Center for Advancing Translational Sciences (NCATS)
LASV entry inh = Lassa virus entry inhibition. Potency, µM (highest dose often 37.9 µM), without a hit: at the top dose activity change, negative = inhibition, usual class: inhibitors. AID 540256. 300,000 tested, 1.2% active. Lassa virus pseudotype entry inhibition, cell reporter; control for the full effect not named in the record; active means well fitted inhibition curve with a large enough effect; inconclusive means small, poorly fitted or top-dose-only effect, or effect the other way; inactive means flat fitted curve, though single readings scatter; tested in HEK293 cells; also: % is scaled to controls: 0 for no effect and ±100 for the full control effect; nearly all actives have a fitted effect of over 50% in size; luciferase read-out
Cruzain inh noDet = cruzain (T. cruzi) inhibition without detergent; P25779; purified cruzain, Z-FR-AMC fluorescence, no detergent; Potency, µM, inactives show max response, negative = inhibition, usual class: inhibitors; 200,000 tested, 2.3% active; AID 1476; active = well fitted curve in the direction sought with a large enough effect; inconclusive = small, poorly fitted or top-dose-only effect, or another doubt; inactive = no such curve, though single readings can be large; an effect the other way counts as inactive or inconclusive;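 also: plate controls were enzyme without inhibitor for no effect and buffer without enzyme for full effect; nearly all actives have a fitted effect of over 40% in size; top concentration of the series not given in the record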
Target sequence (P25779 123-467 limits assumed): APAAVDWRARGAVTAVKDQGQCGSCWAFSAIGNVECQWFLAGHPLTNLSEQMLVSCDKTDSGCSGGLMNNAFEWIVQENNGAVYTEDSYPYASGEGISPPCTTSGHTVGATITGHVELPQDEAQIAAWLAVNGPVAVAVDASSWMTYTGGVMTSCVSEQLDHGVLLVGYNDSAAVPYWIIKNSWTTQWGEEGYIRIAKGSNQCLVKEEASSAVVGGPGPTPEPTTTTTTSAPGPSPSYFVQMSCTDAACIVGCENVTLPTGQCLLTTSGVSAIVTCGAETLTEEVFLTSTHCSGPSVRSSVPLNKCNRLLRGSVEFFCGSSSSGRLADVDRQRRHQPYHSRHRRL
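Detergent-free condition (0.00005% Triton X-100) in acetate buffer pH 5.5 with DTT. 1.5 nM enzyme and compound were pre-mixed 15 min, then 2 uM Z-FR-AMC substrate added; reaction progress from fluorescence change between first and third reads (60 s).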
RE007 growth inh = less growth of the S. pombe RE007 Vpr strain; S. pombe RE007 Vpr strain, BacTiter-Glo ATP luminescence, 24 h; control for the full effect not named in the record; 360,000 tested, 0.21% active; Potency, µM (doses to about 92.2 µM), for inactives: top-dose activity change, negative = less growth; active = well fitted falling curve with a large enough effect; inconclusive = small, poorly fitted or top-dose-only effect; inactive = no such curve, though single readings can be large or run the other way;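 also: % is scaled to controls: 0 for no effect and ±100 for the full control effect; nearly all actives have a fitted effect of over 50% in size; the assay follows cell death caused by Vpr and the record does not say whether a fall means rescue or toxicity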
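Fission yeast RE007 carrying one integrated HIV-1 vpr copy, seeded at OD 0.01 in PMG+AL medium with 23 nL pinned compound. Grown 24 h at 30 degrees; viability read by BacTiter-Glo luminescence after 5 min.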
MARV entry inh = blocks Marburg virus binding to or entry into cells; Marburg virus pseudotyped entry inhibition, cell reporter; control for the full effect not named in the record; about a third of the inactives were read at about 46 µM; 300,000 tested, 1.8% active; Potency, µM (series often up to 37.8 µM), inactives show at the highest dose activity change, negative = inhibition, actives largely listed as inhibitors; active = well fitted inhibition curve with a large enough effect; inconclusive = small, poorly fitted or top-dose-only effect, or effect the other way; inactive = flat fitted curve, though single readings scatter; tested in HEK293 cells; about a fifth of its hits are not listed in these tables; also: % is scaled to controls: 0 for no effect and ±100 for the full control effect; luciferase read-out
NS1 inh = blocks influenza NS1 protein function | S. cerevisiae slowed by influenza A NS1, growth recovery by OD600 | AID 2326 | 270,000 tested, 0.4% active | Potency, µM (highest dose often 46.1 µM), without a hit: at the top dose activity, positive = more growth; also: actives are rising curves; nearly all actives have a fitted effect of over 50% in size
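Recovery from NS1-induced slow growth read by OD600 in budding yeast switched to galactose assay medium (pH 6.0, -URA) at 1:100 dilution. Compound 23 nl per well; the matching strain lacking NS1 serves as control.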
StopGo reporter = FMDV 2A StopGo reporter, luciferase signal; human cells with a luciferase reporter of 2A StopGo recoding; control for the full effect not named in the record; Potency, µM (doses to about 57.9 µM), for inactives: at the highest dose signal change, negative = less light; 410,000 tested, 1.2% active; active = well fitted falling curve with a large enough effect; inconclusive = small, poorly fitted or top-dose-only effect; inactive = no such curve, though single readings can be large or run the other way; tested in HEK293T cells; also: % is scaled to controls: 0 for no effect and ±100 for the full control effect; nearly all actives have a fitted effect of over 45% in size; luciferase light after 4 h
SARS PLP yeast = SARS-CoV PLP inhibition in yeast; 330,000 tested, 0.19% active; S. cerevisiae expressing SARS-CoV PLpro, growth rescue; control for the full effect not named in the record; AID 485353; Potency, µM (highest dose often 32.9 µM), for the others: at the highest dose activity, positive = growth rescue; also: 0% is about no effect; nearly all actives have a fitted effect of over 55% in size; growth read by luminescence after 48 h
Cruzain Triton = cruzain (T. cruzi) inhibition with detergent. AID 1478. 200,000 tested, 0.43% active. purified cruzain, Z-FR-AMC fluorescence, 0.01% Triton. P25779. Potency, µM, inactives show max response, negative = inhibition, actives largely listed as inhibitors; active = well fitted curve in the direction sought with a large enough effect; inconclusive = small, poorly fitted or top-dose-only effect, or another doubt; inactive = no such curve, though single readings can be large; an effect the other way counts as inactive or inconclusive;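 also: plate controls were neutral wells for no effect and buffer without enzyme for full effect; nearly all actives have a fitted effect of over 40% in size; top concentration of the series not given in the record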
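Purified cruzain (1.5 nM final) was preincubated with compounds for 15 min at room temperature in 100 mM sodium acetate pH 5.5, 5 mM DTT, 0.01% Triton X-100. Reaction started with 2 uM Z-FR-AMC; AMC fluorescence change over 60 s gave activity.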
The depositor's hits bear a star; ? = inconclusive; / = no result given; & = joins results of further samples; [ ] = dose if it differs, or a comment. Unless noted, calls follow the shape of the dose curve; as a rule, active means well fitted rising curve with a large enough effect; inconclusive means small, poorly fitted or top-dose-only effect; inactive means no such curve, though single readings can be large or run the other way. Potency is read from the fitted curve at half-maximal effect.

SMILES	LASV entry inh	Cruzain inh noDet	RE007 growth inh	MARV entry inh	NS1 inh	StopGo reporter	SARS PLP yeast	Cruzain Triton
COc1cccc(CN(C)C(=O)c2[nH]c(C)c(C(C)=O)c2C)c1OC	-2%	/	-1%	?	1%	?	1%	/
O[C@H]1COC2C1OC[C@@H]2O (stereo partly drawn)	0%	-9%	-12%[18.4 µM]	-1%	-2%	-11%	7%	0.5%
Cc1cc(C)n(C(=O)CNC(=O)c2ccco2)n1	20%	10%	-4%	-9%	6%	13%	-6%	0.5%
CC(=O)c1ccc(-c2ccc([C@H]3[C@H]4C=CC[C@@H](C)[C@@H]4C(=O)N3Cc3ccccc3)c(F)c2)cc1	/	/	-8%	/	0%	-18%	-3%	/
O=c1oc2cc(OCc3ccc(C(F)(F)F)cc3)ccc2cc1-c1ccccn1	-1%	-10%	-12%	3%[46.1 µM]	4%	-16%	7%	2.7%
Cc1cccc(N2CCN(S(=O)(=O)c3c(C)[nH]c(=O)[nH]c3=O)CC2)c1C	6%[46.1 µM]	-9%&-15%	-24%	9%&9%	7%	-18%	6%	0.2%&-1.9%
Cc1cccc(NC(=O)c2c(NC(=O)c3ccccc3)sc3c2CCC3)c1	?	4%	/	/	/	1%	/	-1.2%
Cn1ccnc1C(=O)c1ccc(NN)c([N+](=O)[O-])c1	11%	/	-10%	?	/	19%	-1%	/
Cc1nn(CC(=O)N2CCN(c3ccc(Cl)cc3)CC2)c(=O)c2cccn12	-12%[46.1 µM]	10%	-3%	22%[46.1 µM]	7%	0%&-22%	-2%	?
CCOc1ccccc1N(C)C(=O)Cn1ncc2c([nH]c3ccccc32)c1=O	-20%[46.1 µM]	/	11%	6.3µM*	19%	-17%	5%	/
O=C(Oc1cc(=O)oc2c1c(=O)n1c3c(cccc23)CC1)c1ccc(F)cc1	-28%	/	2%	-13%[46.1 µM]	-46%	-2%	1%	/
O=C(COc1ccc(F)cc1)N1CCCCCCC1	13%[46.1 µM]	/	19%	30%[46.1 µM]	-3%	16%	-3%	/
O=C(N/N=C/c1cccnc1)c1cc(C2CC2)nc2ccccc12	?	/	5%	-22%[46.1 µM]	19%	0%	3%	/
O=C(CCCCn1ccc(=O)[nH]c1=O)Nc1ccc(O)c(C(=O)O)c1	-2%[46.1 µM]	/	-23%	-4%[46.1 µM]	/	9%	/	/
C=CCn1c(SCC(=O)Nc2c(C)cccc2C)nnc1-c1cnccn1	7%	3%	3%	3%	4%	-18%	5%	2.1%
O=C(Nc1ccc(N2CCOCC2)cc1)c1c(F)cccc1Cl	2%	/	59%	17%[46.1 µM]	/	39%[activator]	0%	/
CCCNC(=O)COC(=O)c1ccc(S(=O)(=O)N2CCCCCC2)cc1	-8%	7%	5%	13%	-4%	8%	7%	0.3%
CC1CCC(C(C)C)C(OP(N)(=O)c2ccccc2)C1 (stereo not drawn)	-6%	6%	7%	-2%	-8%	-11%	-4%	1.2%
CC(C)(C)C(=O)N(Cc1ccccc1)c1ccccn1	14%[46.1 µM]	/	6%	?	-1%	-2%	1%	/
Cc1cc(C(=O)CSc2n[nH]c(-c3ccccc3F)n2)c(C)n1Cc1cccs1	-25%	16µM*	10%	-25%[46.1 µM]	2%	-29%	-10%	-8.2%
Cc1ccc(CN2CCN(Cc3cnc(C)s3)CC2CCO)o1 (stereo not drawn)	/	/	6%	/	-2%	-17%	2%	/
Cc1ccc(C)c(N2CCN(CCCNc3ncnc4onc(-c5ccc(Cl)cc5)c34)CC2)c1	2%[46.1 µM]	-3%	/	/	/	-30%	/	-1.4%
O=C(COc1ccc(/C=N/NC(=O)c2cccnc2)cc1)Nc1ccccc1	1%	/	4%	?	-1%	-18%	5%	/
CCOC(=O)N1CCC(=NNc2ccc(S(=O)(=O)N3CCOCC3)cc2[N+](=O)[O-])CC1	?	?	4%	5%	16%	0%	4%	-6.1%
C[C@@H](C(=O)NCc1ccc(S(C)(=O)=O)cc1)[C@@H]1C[C@@]1(C)[C@@H](NC(=O)OCc1ccccc1)c1ccccc1	?	25%&25%	-8%	-40%	-5%	-16%	2%	-3.5%&-4.6%
COc1cc(C(=O)NC(c2ccccc2)c2ccccc2)cc(OC)c1OC	-2%	/	-2%	7%	7%	-7%	-7%	/
c1ccc(CNCCc2c[nH]c3ccccc23)cc1	/	/	8%	/	9%	-4%	-3%	/
CC[n+]1c(/C=C2/C=C(C)CC(C)C2)sc2ccccc21 (stereo not drawn)	?	/	-22%	?	/	?	1%	/
CCc1cccc(CC)c1NC(=O)c1cc(S(=O)(=O)N2CCc3ccccc32)cn1C	0%[46.1 µM]	-5%	/	/	/	3%	/	-2.5%
CC(=O)c1cccc(NC(=O)CC2S/C(=N/N=C/c3cccs3)NC2=O)c1 (stereo not drawn)	/	/	16%	/	8%	-25%	0%	/
Cc1cc2c(cc3c(=O)n(CC(=O)NCCCN4CC(C)CC(C)C4)ncn32)s1 (stereo not drawn)	5%[46.1 µM]	/	-10%	?	-10%	-4%	1%	/
COc1ccc(OCC(O)CN2C(=O)NC(C)(C)C2=O)cc1 (stereo not drawn)	0%	-1%	21%	-6%[46.1 µM]	-1%	14%	0%	0.7%
Cc1cc(C(=O)CN2C(=O)NC3(CCCCC3)C2=O)c(C)n1Cc1ccc2c(c1)OCO2	1%	-28%	4%	26%&26%	-12%	17%	-5%	-3.5%
COC(=O)C(Cc1c[nH]c2ccccc12)NC(C)=O (stereo not drawn)	15%	?	-8%	5%	5%	0%	13%	-1.0%
CC(CC(=O)N1CCN(c2cccc(Cl)c2)CC1)S(=O)(=O)c1ccc2c(c1)NC(=O)CO2 (stereo not drawn)	/	/	-11%	/	4%	2.8µM*	1%	/
Cc1ccnc(Nc2nc(-c3c(C)nc4sccn34)cs2)c1	-14%	5%	-1%[3.69 µM]	-29%	-52%	?	-19%	-11%
Cc1ccccc1-c1noc(-c2cc(-c3ccc(F)cc3)n[nH]2)n1	-9%[46.1 µM]	2%	/	/	/	24%	/	-1.3%
CCOc1cc(C(=O)N2CC(=O)Nc3ccc(F)cc3C2c2ccccc2)cc(OCC)c1OCC (stereo not drawn)	21%[46.1 µM]	7%	/	-19%[46.1 µM]	/	-7%	/	0.7%
CCOC(=O)N1CCN(C2CCCN(C(=O)c3cccc(Cl)c3)C2)CC1 (stereo not drawn)	-3%	/	5%	22%	0%	-19%	-3%	/
Cc1ccc(OCC(=O)Nc2ccc(N3CCCC3)cc2)cc1C	0%	2.5µM*	-14%	?	-1%	-10%	1%	?
Cn1c(N)c(C(=O)CSc2nc3ccccc3c(=O)n2Cc2ccccc2)c(=O)n(C)c1=O	0%	/	1%	?	3%	-8%	0%	/
O=C(CSc1nc2ccccc2s1)Nc1nccs1	7%	?	-13%[3.69 µM]	2%	-7%	-3%	0%	0.6%
COc1ccc(NC(=O)c2[nH]nc3c2CSc2ccccc2-3)c(OC)c1	0%[46.1 µM]	6%	/	/	/	-7%	/	-1.5%
O=C(c1ccncc1)N1N=C(C2CC2)CC1(O)C(F)(F)F (stereo not drawn)	?	/	-1%	7%[46.1 µM]	0%	-9%	0%	/
Cc1cc2c(cc1C)C(c1cccc(F)c1)CC(=O)N2 (stereo not drawn)	/	/	0%	/	-26%	-22%	-6%	/
COc1ccc(CN2CCN(C(=O)Cc3ccccc3)CC2)c(OC)c1	-3%	-10%	3%	-3%	3%	0%	-1%	2.2%
c1ccc(-c2cc3c(N4CCCCC4)ncnc3s2)cc1	-17%	/	-13%	-55%[46.1 µM]	/	-21%	-5%	/
COc1cc([N+](=O)[O-])ccc1-c1ccc(C(=O)Nc2ccc(NC(C)=O)cc2)o1	0%	?	-9%	-15%	?	-3%	13%	?
CCc1ccccc1NC(=O)NNC(=O)CCc1ccc(OC)cc1	/	/	6%	/	2%	16%	2%	/
COC(=O)CN(c1nc(C)c(Br)c(OC)n1)S(=O)(=O)c1ccccc1	/	/	-13%	/	-27%	3%	-10%	/
Cc1cccc(C)c1NC(=O)c1c[nH]c2ccccc12	-13%[46.1 µM]	/	-21%	?	-33%	29%	0%	/
COc1ccccc1/C=N/NS(=O)(=O)c1ccccc1	/	/	1%	/	6%	52%[activator]	2%	/
Cc1cc(C(=O)OC(C)C(=O)N2CCc3ccccc32)ccc1[N+](=O)[O-] (stereo not drawn)	0%	/	-6%	-1%	/	-1%	-7%	/
O=C(CC1C(=O)NCCN1C(=O)c1ccccc1)Nc1cc(Cl)ccc1Cl (stereo not drawn)	-8%	/	5%	-30%	8%	-13%	?	/
Cn1c(=O)c2c(nc(N/N=C/c3cccnc3)n2Cc2ccccc2)n(C)c1=O	?	/	-16%	?	3%	?	1%	/
CCCOc1cccc(C(=O)Nc2cccc(NC(=O)c3ccco3)c2)c1	-16%	-1%	2%	5%[46.1 µM]	-83%	-25%	-5%	-6.1%
Cc1cc(S(=O)(=O)Nc2noc3ccccc23)ccc1F	/	/	9%	/	-2%	35%[activator]	2%	/
COc1cc(C(=O)N2CCN(C(=O)c3cc(-c4ccc(Br)cc4)n[nH]3)CC2)cc(OC)c1OC	/	/	9%	/	5%	-14%	2%	/
C=CCn1c(SCC(=O)NCC2CCCO2)nnc1C1CCCCC1 (stereo not drawn)	-6%	9%	5%	-13%	-5%	13%	4%	6.5%
O=C1CN(C(=O)c2cc3ccccc3oc2=O)C(c2ccc(F)cc2)c2cc(F)ccc2N1 (stereo not drawn)	-4%	2%	-1%	13%	-23%	-12%	-5%	1.3%
O=C(COc1nncc2ccccc12)NCCC1=CCCCC1	6%	1%	25%	3%	-1%	3%	-1%	-2.0%
Cn1nc(C(=O)N2CCOCC2)c([N+](=O)[O-])c1C(=O)N1CCOCC1	0%	-5%	-1%	?	0%	1%	-13%	-1.5%
CC(=O)Nc1ccc(OC(=O)COc2ccc(Br)cc2)cc1	-1%	-8%	-6%	6%	-14%	-24%	-9%	-0.8%
